# Screening results as filed in PubChem.
# Arbovirus anti = arbovirus infection inhibition; arbovirus infection cell-based antiviral screen; inhibition, % at 10 µM; 200,000 tested, 0.37% active; AID 1251;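 active means inhibition from about 30%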;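 further: bluetongue infection of BSR cells; cell survival read as ATP light after 72 h; 0% = infected wells without compound and 100% = uninfected wells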
# Mtb H37Rv = M. tuberculosis H37Rv growth inhibitors, H37Rv strain (AID 1626); M. tuberculosis H37Rv growth inhibition; higher % means a stronger effect; one-dose inhibition, % at 10 µM; IC50 in µM for titrated hits; 220,000 tested, 0.95% active;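 active means confirmed in a dose series; inconclusive means inhibition above 80% but not taken into the dose series; inactive means below 80% or under 30% at every dose of the series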;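 further: bacteria incubated seven days before Alamar blue readout; 0% = bacteria only wells and 100% = bacteria with antibiotic wells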
# RecA splice inh = blocks M. tuberculosis RecA intein splicing; inhibition, %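 (about 9 µM by stock and volumes)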; cell-free RecA intein splicing, fluorescence; P9WHJ3; 290,000 tested, 0.75% active; in the data active means inhibition above about 30%; inconclusive means no clear call, values can overlap the other calls;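 further: 0% = vehicle wells and 100% = reference inhibitor control wells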
# Target sequence (P9WHJ3 whole entry, looked up, canonical isoform): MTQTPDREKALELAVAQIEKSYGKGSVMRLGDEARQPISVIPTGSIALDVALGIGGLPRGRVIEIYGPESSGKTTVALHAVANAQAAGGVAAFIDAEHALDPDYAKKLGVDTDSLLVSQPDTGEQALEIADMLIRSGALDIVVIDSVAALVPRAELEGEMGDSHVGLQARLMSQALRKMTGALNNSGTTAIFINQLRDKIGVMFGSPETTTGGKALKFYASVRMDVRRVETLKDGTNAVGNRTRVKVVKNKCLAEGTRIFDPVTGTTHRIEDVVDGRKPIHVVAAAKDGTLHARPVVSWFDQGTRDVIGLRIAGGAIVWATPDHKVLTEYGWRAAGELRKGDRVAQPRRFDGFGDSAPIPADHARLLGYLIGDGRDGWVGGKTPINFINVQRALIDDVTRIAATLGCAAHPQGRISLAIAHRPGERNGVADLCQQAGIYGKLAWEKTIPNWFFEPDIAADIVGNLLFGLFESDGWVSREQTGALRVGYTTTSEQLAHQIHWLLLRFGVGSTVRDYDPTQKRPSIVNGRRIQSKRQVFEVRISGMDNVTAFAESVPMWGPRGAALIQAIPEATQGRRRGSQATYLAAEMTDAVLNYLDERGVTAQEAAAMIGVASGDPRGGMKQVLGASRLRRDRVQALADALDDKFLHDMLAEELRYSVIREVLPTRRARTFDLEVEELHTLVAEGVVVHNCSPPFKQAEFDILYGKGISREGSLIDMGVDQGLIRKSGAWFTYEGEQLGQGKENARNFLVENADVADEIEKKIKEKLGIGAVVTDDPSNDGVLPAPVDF
# Mtb betalactam = beta-lactam sensitization of Mtb H37Rv. AID 434955. 330,000 tested, 0.27% active. M. tuberculosis H37Rv growth with meropenem, percent inhibition; hits of this screen are not shown here. inhibition, % at 25 µM;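 active means about 74% or more and at least 40 points above the plate without the antibiotic, then above 30% in a dose series; inconclusive means first-round hits that could not be retested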;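 further: growth measured after seven days incubation then overnight dye step; 0% = bacteria only wells and 100% = bacteria with antibiotic; twin plates without the antibiotic show which effects depend on it; some results filed as inactive read as strong as hits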
# YopH PTP inh = inhibitors of Yersinia enterocolitica YopH tyrosine phosphatase; 140,000 tested, 0.16% active; inhibition, %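 (about 10 µM by stock and volumes)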; fluorescence Ex485/Em525;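 active means inhibition of 50% or more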;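 further: controls were vehicle for no effect and minimum signal wells for full effect; inactives centre near -20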
# Arbovirus anti repeat = recorded beside Arbovirus anti, whose call it bears; inhibition, %; measured here: 10K subset replicate screen; many hits read low in the repeat;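 first of two repeat runs on a subset; 0% = infected and 100% = uninfected wells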
# Starred values were filed as active, the others as inactive; ? = inconclusive; . = not tested or not shown.
SMILES,Arbovirus anti,Mtb H37Rv,RecA splice inh,Mtb betalactam,YopH PTP inh,others
O=C(CN1C(=O)/C(=C/c2ccc(F)cc2)SC1=S)N1CCN(CCc2ccccn2)CC1,.,.,5.2,65.5,.,
COc1ccc(CNC(=O)CCC(=O)Nc2nnc(C(C)C)s2)cc1,.,-1.7%,.,-10.3,.,
COc1ccc(CN(CC(=O)NC2CCCCC2)C(=O)CCC(=O)Nc2nccs2)cc1,.,.,-0.6,-6.1,.,
CC1CC(C)CN(C(=O)Cn2ncc3c([nH]c4ccccc43)c2=O)C1 (stereo not given),.,.,1.1,-11.3,.,
O=C(c1ccccc1CCc1ccccc1)N1CCN(c2ccccn2)CC1,6.4,10.5%,8.3,-1.3,-32.5,
Cc1ccc2[nH]c3c(=O)n4c(nc3c2c1)SCC4,-1.8,-3.0%,2.4,2.0,.,
Cn1c(=O)oc2cc(S(=O)(=O)N3CCC(C(=O)NCCc4ccccc4)CC3)ccc21,.,-6.1%,-0.3,-1.4,.,
CCOc1cc(C(=O)NCc2ccncc2)cc(OCC)c1OCC,8.4,-9.3%,1.4,-7.2,-48.4,
Cc1cccc(CN2CCc3c([nH]c4ccccc34)C2)c1,.,.,-4.2,-3.9,.,
C#CCSc1nnc(-c2cc3c(C(F)(F)F)nn(C)c3s2)n1C,-1.0,-16.0%,2.0,0.4,-32.8,
NC(=O)c1ccc(NCCCN2CCOCC2)c([N+](=O)[O-])c1,0.2,-9.9%,3.0,2.2,.,
Cc1ccn2c(=O)nc(SCC(=O)NCc3ccccc3Cl)nc2c1,.,.,1.5,-6.5,.,
CCNC(=S)N/N=C/c1ccc(F)cc1,-5.7,-3.4%,-2.2,-1.7,.,
CSc1ccc(C(=S)N2CCN(Cc3ccccc3)CC2)cc1,-1.8,-5.6%,7.0,-0.8,-23.1,
C=C(C)COc1ccc(-c2[nH]ncc2Oc2ccccc2OCC)c(O)c1,-29.0,-4.0%,12.8,-20.0,3.9,
NS(=O)(=O)c1ccc(CCNC(=O)CCCOc2ccccc2)cc1,-2.3,-9.4%,1.1,3.1,.,
N#Cc1ccsc1NC(=O)CCN1CCN(C(c2ccccc2)c2ccccc2)CC1,.,.,13.1,1.8,.,
CCN(CC(=O)Nc1ccccc1C(=O)OC)S(=O)(=O)c1ccccc1,5.9,-0.8%,-0.7,-4.2,-11.3,
O=C(Nc1ccccc1)C1CCCN(S(=O)(=O)c2ccc(-n3cnnn3)cc2)C1 (stereo not given),0.2,-7.8%,-1.1,5.2,5.4,
O=C(CSc1c2c(nc3ccc(Cl)cc13)CCCC2)NCc1ccco1,22.4,-0.7%,29.2,-8.1,-23.5,
C=C(C)COc1ccc(-c2nc(N)ncc2-c2ccc(Cl)cc2)c(O)c1,.,.,12.4,92.7,.,
Cc1ccc(-n2c(O)c(/C=N/NC(=O)C3COc4ccccc4O3)c3ccccc3c2=O)cc1 (stereo not given),-22.3,-0.3%,-14.2,-0.7,-19.5,
Cc1ccc(S(=O)(=O)c2nc(S(C)(=O)=O)sc2N2CCCCC2C)cc1 (stereo not given),.,.,-4.3,3.0,.,
c1cc(CN2CCN(C3CCCCCC3)CC2)ccn1,6.4,9.0%,-4.5,0.6,.,
CCOC(=O)Cc1n[nH]c(=O)c2ccccc12,-0.4,-0.5%,-4.6,-7.6,.,
CC(C(=O)N1CCOCC1)N1C(=O)C2C3CC(C(Br)C3Br)C2C1=O (stereo not given),-6.1,2.8%,2.6,-1.6,-9.6,
CCC(=O)c1cn(CC(=O)Nc2ccc(C)cc2)c2ccccc12,.,.,1.2,-1.8,.,
O=C(c1ccccc1)N1CCN(C(=S)NCc2ccc3c(c2)OCO3)CC1,3.8,1.1%,.,1.8,-23.1,
CC(=O)Nc1ccc(S(=O)(=O)N2CCN(C(=O)Cc3ccccc3)CC2)cc1,2.4,1.6%,-1.4,-10.5,-5.4,
O=[N+]([O-])c1ccccc1S(=O)(=O)N1CCN(c2ccc(F)cc2)CC1,.,.,1.3,-0.9,.,
Cc1ccc(-n2ncc3c2ncn2c(C)nnc32)cc1C,-4.9,14.5%,.,18.6,-18.5,
CC1=C(C(=O)N(C)Cc2ccccc2)C2(CCC(C)CC2)OC1=O (stereo not given),-2.5,2.2%,1.5,0.2,-26.7,
O=S(=O)(c1ccccc1)c1nc(-c2cccc(Cl)c2)oc1N1CCOCC1,.,.,4.9,-8.4,.,
Cc1ccc(N2Cc3ccccc3C2=S)cc1,-3.7,-0.8%,1.1,0.1,.,
C=C(c1ccc(OC)cc1)c1ccc(OC)cc1,-12.5,.,-4.8,6.9,-25.7,
CCC(=O)NCCc1cc2ccc(C)cc2[nH]c1=O,2.0,-8.4%,.,-3.2,-34.9,Arbovirus anti repeat=0.9
O=C(O)COCC(=O)NCc1csc2ccccc12,.,-6.0%,2.1,-2.8,.,
Cc1ccc(S(=O)(=O)Cc2ccc(C(=O)NCc3ccc4c(c3)OCO4)o2)cc1,-2.4,-3.7%,-2.9,0.0,-12.4,
COc1ccc(-c2nc(-c3cccs3)c(-c3cccs3)[nH]2)cc1OC,-19.6,-7.0%,7.2,94.7,-20.3,
CSc1nc(-c2ccccc2)nc(NC(=O)c2ccccc2)c1C(C)=O,6.1,8.6%,1.9,5.1,.,
O=S(=O)(NCc1cccnc1)c1ccc(Cl)c(Cl)c1Cl,4.4,1.7%,1.0,66.8,-32.6,
O=C(NC1CCCc2ccccc21)c1ccc(=O)[nH]c1 (stereo not given),4.6,-7.0%,1.9,-1.6,-8.3,
Cc1nc(SCC(=O)NCc2ccccc2)c2c(=O)n(C)c(=O)n(C)c2n1,9.3,-3.1%,0.5,-2.6,-36.5,
CCC1CCCCN1CCCNC(=O)CNC(=O)c1nn(-c2ccc(OC)cc2)c(=O)c2ccccc12 (stereo not given),.,.,1.5,-9.7,.,
CCc1ccc(-c2cc(C)no2)cc1S(=O)(=O)N1CCC(C)CC1,.,.,14.2,5.5,.,
C=CCc1c(C)nc(SCCC)[nH]c1=O,1.2,3.4%,0.4,10.9,-24.3,
COc1ccccc1/C=C/C(=O)Nc1cccnc1Cl,.,.,1.5,2.7,.,
COc1ccc(/C=N/NC(=O)C(O)(c2ccccc2)c2ccccc2)cc1OC,5.8,-0.8%,1.3,3.8,-23.2,
Cc1ccc(NC(=O)COc2ccc(C3SCCS3)cc2)cc1,3.1,8.9%,-2.2,-4.4,-31.2,
CCOC(=O)C1Nc2ccc(Br)cc2C2C=CCC12 (stereo not given),.,.,9.8,6.8,.,
COc1ccccc1NC(=O)C1=C(C)Nc2nc3ccccc3n2C1c1cccs1 (stereo not given),-8.7,?,-3.2,-2.1,-15.8,
COc1ccccc1NS(=O)(=O)c1ccc(O)c(C(=O)OCC(=O)N2CCc3ccccc32)c1,.,-3.1%,6.0,-7.0,.,
Cc1ccc2[nH]c(SCC(=O)N3CCOCC3)nc2c1C,-14.7,-7.0%,-2.6,-4.6,-9.1,
CC(=O)COc1ccc2c(C)c(-c3ccccc3)c(=O)oc2c1,13.8,-1.2%,-2.8,0.3,.,
COc1cccc(NC(=O)NC2(C(=O)N3CCC(O)CC3)CCCCC2)c1,.,.,-0.8,-2.3,.,
C=CCc1cccc(/C=N/NC(=O)c2ccccc2OC)c1O,-17.3,3.8%,-2.5,4.2,.,
O=C(O)c1cc(-c2ccccc2)nn1CC1CC(c2cccnc2)=NO1 (stereo not given),.,-2.0%,3.2,-16.5,.,
C=CCn1c(SCC(=O)Nc2cc(C)on2)nnc1C1COc2ccccc2O1 (stereo not given),0.1,1.2%,-1.7,-1.2,.,
CN(C)CCNC(=O)/C(=C/c1cccc([N+](=O)[O-])c1)NC(=O)c1ccccc1,6.7,4.0%,-0.6,12.2,-8.7,
O=C(N=C1SCC(=O)N1c1ccccc1)c1ccco1,3.4,-15.6%,.,-2.2,-16.8,
# Going on with the list.
SMILES,Arbovirus anti,Mtb H37Rv,RecA splice inh,Mtb betalactam,YopH PTP inh,others
O=C(c1cccc([N+](=O)[O-])c1)c1ccccn1,.,3.7%,0.5,-5.9,.,
COc1ccc(CCNC(=O)C2CCCN(S(=O)(=O)c3ccc(OC)cc3)C2)cc1 (stereo not given),.,.,0.7,4.3,.,
CCOC(=O)C1=C(c2ccccc2)NC(SCC)=C(C#N)C1c1cccnc1 (stereo not given),-8.4,4.5%,2.2,-0.5,0.6,
CCC(=O)N1CCc2cc(S(=O)(=O)NCCC(=O)N3CCc4ccccc4C3)ccc21,-1.2,-5.9%,-2.2,1.2,-27.6,
CCOC(=O)/C(C#N)=N/Nc1c(S(=O)(=O)Cc2ccco2)csc1C(=O)OC,.,-10.3%,.,-4.5,.,
Cc1ccc2[nH]c(C)c(CCNCc3ccco3)c2c1,.,.,-0.5,-0.6,.,
COC(=O)C1N[C@@H]([C@@H](NC(=O)COc2ccccc2)C(=O)NCc2ccsc2)SC1(C)C (stereo not given in full),.,-11.5%,-1.1,-6.0,.,
CC(C)c1ccc(C2NC(=S)NC3=C2C(=O)CCC3)cc1 (stereo not given),-9.1,-3.4%,5.8,?,-23.3,
CC(=O)c1cccc(N(CC(=O)NC2CCCC2)C(=O)c2csnn2)c1,.,.,-0.5,-6.7,.,
Clc1cccc(OCCN2CCCC2)c1,.,.,-1.7,-1.5,.,
CC(C)(C)CN1CCNC(=O)C1CC(=O)NCCc1ccccc1C(F)(F)F (stereo not given),10.4,6.1%,1.2,-7.7,.,
COCC1CCCN(C(=O)c2ccc3nc(Cc4cccc(Cl)c4)oc3c2)C1 (stereo not given),.,.,5.7,-10.4,.,
COc1ccc(NC(=O)/C(C#N)=C\c2ccc(N3CCOCC3)o2)cc1,-2.1,-6.6%,.,7.8,.,
CCNC(=S)N/N=C1\C(=O)c2cccc3cccc1c23,1.0,10.1%,3.7,.,1.9,
CCOC(=O)c1oc2cc(O)cc(O)c2c(=O)c1OCc1ccccc1,.,-8.8%,-1.0,-4.7,.,
Cc1c(C(=O)Nc2ccc(N3CCOCC3)cc2)oc2ccccc12,-0.1,-1.5%,5.3,10.2,-16.1,
O=C(OC1Cn2c(=O)ccc(=O)n2C1)c1ccccc1,6.7,-7.5%,-3.6,4.2,-23.8,
CCOC(=O)C1=NN(C(=O)c2ccco2)C2(CC2)C1,9.3,-0.2%,-2.2,6.5,-33.6,
CCN(CC)C(=O)CN1CCN(c2ncccn2)CC1,2.8,.,-1.0,-5.0,-5.8,
COc1ccc(/C=C/C(=O)OCc2nc3ccccc3c(=O)[nH]2)c(OC)c1,.,-3.0%,0.7,-8.1,.,
O=C(c1cc2ncc(Br)cn2n1)N1CCCCC1,3.6,-16.0%,1.1,1.6,.,
O=C(N/N=C/c1ccoc1)c1ccc([N+](=O)[O-])cc1,.,.,-0.5,-2.0,.,
COc1ccc(NC(=O)NC(=O)c2ccccc2)cc1,.,.,-3.8,1.4,.,
Cc1ccc(F)cc1CNC(=O)c1cc(COc2ccc3ncccc3c2)on1,-3.1,9.6%,0.7,57.1,.,
COc1ccc(CCC(=O)Nc2ncc(C)s2)cc1OC,.,.,-0.2,2.2,.,
O=C(Nc1ccc(Cl)cc1)C1CCN(C(=O)c2cccs2)CC1,.,.,0.0,-11.2,.,
CC(=O)c1ccc(NC(=O)C(C)Sc2ccccn2)cc1 (stereo not given),0.4,10.3%,-0.8,-5.6,.,
COc1ccc(N(C)S(=O)(=O)c2cccc(C(=O)NC3=NCCS3)c2)cc1,4.4,-1.6%,0.3,-3.3,-36.4,Arbovirus anti repeat=-2.6
CCCCN(CC)CCCNC(=O)c1cn(-c2ccc(OC)cc2)c(=O)c2ccccc12,.,.,-0.7,2.4,.,
COc1cc(NC(=O)c2ccco2)c(OC)cc1NC(=O)CCC(=O)Nc1cccc(C)c1C,2.1,0.3%,.,-3.7,-48.3,

# Not all compounds are listed; count on the stated rates, not on these rows.
